UCH37 inh: inhibitors of human deubiquitinating enzyme UCH37; Q9Y5K5; purified proteasome/UCH37, Ub-AMC cleavage fluorescence; inhibition, % (no concentration beside the values); 0.33% of 330,000 active;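 active means mean of two replicates above 20%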;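 further: 0% = compound-free wells with enzyme and 100% = wells lacking proteasome; stock transfer was 100 nL into about 20 µL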
Target sequence (Q9Y5K5 whole entry, looked up): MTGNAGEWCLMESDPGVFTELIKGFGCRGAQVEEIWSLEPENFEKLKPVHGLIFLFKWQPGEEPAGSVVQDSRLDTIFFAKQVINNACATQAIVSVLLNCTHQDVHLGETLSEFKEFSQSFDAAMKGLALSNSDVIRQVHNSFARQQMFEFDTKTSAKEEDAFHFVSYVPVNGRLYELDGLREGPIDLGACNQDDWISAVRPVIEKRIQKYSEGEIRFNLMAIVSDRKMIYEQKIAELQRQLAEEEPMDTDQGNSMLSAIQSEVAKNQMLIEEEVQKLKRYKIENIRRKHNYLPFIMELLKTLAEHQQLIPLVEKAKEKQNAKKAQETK
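Material: Human UCH37 enzyme supplied as purified proteasome complex | Schedule: 30 min compound-proteasome preincubation then 25 min substrate reaction, room temperature | Detection: AMC fluorescence from Ub-AMC cleavage, excitation 355 nm, emission 460 nm | Benchmarks: Wells without proteasome as full block, compound-free enzyme plus substrate as uninhibited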
Beta2AR agonist: agonists of human beta-2 adrenergic receptor inducing internalization. P07550. Am2.2-beta2AR cells, FAP receptor internalization, flow cytometry; reference of the scale not given here. response, % (concentration not given with the values). 0.43% of 340,000 active;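 active means response above a set limit, near 3 SD of response in nonfluorescent compounds, cut at about 42% in these data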;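 further: stock transfer was 100 nL into about 11 µL; a reference agonist was the positive control; negative values mostly stem from fluorescent compounds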
Target sequence (P07550 whole entry, looked up): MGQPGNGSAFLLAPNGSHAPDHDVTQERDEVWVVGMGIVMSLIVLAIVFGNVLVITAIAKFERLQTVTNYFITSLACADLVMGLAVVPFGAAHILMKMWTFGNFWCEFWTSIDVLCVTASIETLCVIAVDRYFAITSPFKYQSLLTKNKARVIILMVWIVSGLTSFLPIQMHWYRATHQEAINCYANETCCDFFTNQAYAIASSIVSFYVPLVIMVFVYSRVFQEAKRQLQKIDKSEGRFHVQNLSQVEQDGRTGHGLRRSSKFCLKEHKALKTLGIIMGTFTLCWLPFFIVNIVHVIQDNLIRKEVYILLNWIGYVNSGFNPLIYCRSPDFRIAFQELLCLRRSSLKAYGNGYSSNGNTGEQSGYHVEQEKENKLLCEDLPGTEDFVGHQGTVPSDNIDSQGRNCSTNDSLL
LANA-H2B inh: blocks KSHV LANA binding to histone H2A/H2B. Q9QR71. cell-free LANA-H2A/H2B peptide, fluorescence polarization. inhibition, % (concentration not given with the values). 0.6% of 320,000 active; in the data active means inhibition mostly above about 10%, no sharp cut-off; inactive means mostly below about 6.7%;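 further: stock transfer was 7.5 nL into about 10 µL; 0% = median of vehicle wells and 100% = median of positive control wells; one replicate is shown; the record names a cut of 25% in any replicate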
T cruzi inh: blocks replication of Trypanosoma cruzi; 1.4% of 300,000 active; inhibition, % (no concentration beside the values); T. cruzi beta-gal in NIH3T3, luminescence, 90 h;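 active means mean inhibition across valid replicates above about 55%, limit read from the data; inconclusive means mean below that limit but half or more replicates reach it; inactive means mean below it, under half of replicates reach it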;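 further: signal also drops with host cell toxicity which is not excluded here; 0% = plate median of DMSO wells and 100% = zero luminescence signal; higher percent means less beta-gal luminescence so fewer parasites; stock transfer was 50 nL into about 50 µL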
Calb FLC: affects C. albicans growth with fluconazole; C. albicans CaCi-2 (fluconazole-resistant clinical isolate) + fluconazole, Alamar Blue growth, 48 h; growth inhibition, % (no concentration beside the values); 0.57% of 300,000 active; AID 1979;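 active means most replicates above 75%; inconclusive means exactly half above 75%; inactive means most below 75%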;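 further: all wells also contain fluconazole at 8 µg/ml as a sub-toxic cotreatment; 0% = median of DMSO wells and 100% = median of geldanamycin control wells; wells of about 8 µL received 7.5 nL stock; the first replicate is given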
Beta apoptosis: beta cell apoptosis inhibition. 0.8% of 300,000 active. INS-1E cytokine-induced death, ATP luminescence, 48 h; percent of positive-control rescue, neutral wells zero. protection from apoptosis, % (no concentration beside the values);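 active means all replicates at 75% or more, or half of them and the mean; inconclusive means half reach 75% but not the mean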;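 further: 0% = cytokine-treated negative control wells and 100% = positive control rescue; higher means more ATP so stronger rescue from cytokine killing; wells of about 40 µL received 100 nL stock; the first replicate is given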
RanGTP-Impb inh: disruptors of Ran-importin-beta complex formation – biochemical, FRET, CFP-Ran, YFP-importin-beta, homogeneous, primary screen; cell-free CFP-Ran/YFP-importin-beta FRET ratio; inhibition, % (concentration not given with the values); 1.1% of 300,000 active; AID 2216;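 active means most replicates above 15%; inconclusive means exactly half above 15%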;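 further: 0% = DMSO wells and 100% = Ran loaded with GDP instead of GTP; wells of about 40 µL received 100 nL stock; the first replicate is given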
A1 inh: inhibitors of the anti-apoptotic protein A1, read as caspase activation | MEF A1-2A-BIM cells, Caspase-Glo 3/7 luminescence, 3 h; percent of clofoctol response, vehicle zero | caspase activation, % (test concentration not listed) | AID 2462 | 0.066% of 330,000 active;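 active means over half of replicate activation scores above 10%, or exactly half above 10 with the replicate mean above 10; inconclusive means replicate mean below 10 yet half the replicates above 10; inactive means over half of replicates below 10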;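 further: wells of about 30 µL received 50 nL stock; many hits fall short of the cut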
An asterisk follows results filed as active; ? = inconclusive; / = no result given.

SMILES	UCH37 inh	Beta2AR agonist	LANA-H2B inh	T cruzi inh	Calb FLC	Beta apoptosis	RanGTP-Impb inh	A1 inh
COc1ccc(C(=O)NCC(=O)N/N=C/c2cn[nH]c2-c2ccccc2)cc1	/	0.8	-1.2	-12.8	-4.7	-6.2	1.9	0.1
COc1ccc(C2CC(c3cccs3)n3nc(N)nc3N2)cc1 (configuration not stated)	-16.8	0.3	3.3	17.4	4.1	2.4	-0.5	-0.9
Cc1ccccc1C(=O)NNC(=O)c1cc(S(=O)(=O)N2CCOCC2)ccc1C	3.0	3.0	1.8	/	/	7.6	/	0.2
Cc1cc(=O)n(Cc2ccccc2)c2c(C)cccc12	0.7	9.0	5.4	0.6	4.4	0.4	0.1	1.6
CSc1nnc(NC(=O)c2nc(S(=O)(=O)Cc3cccc(C)c3)ncc2Cl)s1	/	24.4	1.0	-6.7	5.6	-28.7	3.5	2.9
CCOc1ccccc1NC(=O)CCC(=O)Nc1nnc(C2CCCCC2)s1	4.8	-6.3	1.5	10.3	0.2	-7.0	-1.4	-1.0
Cc1ccc(S(=O)(=O)Nc2nc(-c3ccccc3)cs2)cc1	1.7	-0.9	2.0	9.2	23.8	-0.3	-3.2	0.1
O=C(Nc1ccc(Cl)c(S(=O)(=O)N2CCOCC2)c1)c1cc(-c2ccccn2)nc2ccccc12	1.7	-3.2	-4.2	27.6	7.1	3.5	4.6	0.2
O=S(=O)(NCCNc1ncc(C(F)(F)F)cc1Cl)C(F)(F)F	4.2	-0.8	-3.6	-20.0	22.4	22.6	-2.8	-1.2
Cc1[nH]c2ccccc2c1C(=O)COc1ccccc1	0.2	-0.1	-10.5	0.4	-11.7	-3.1	1.2	-0.9
CCCCN(C(=O)CCC(=O)Nc1cc(C)on1)C(C(=O)NC1CCCC1)c1cccc(OC)c1 (configuration not stated)	1.6	-6.2	3.8	5.5	6.7	2.7	5.3	0.7
O=C(Cc1ccccc1)NCCCN1CCN(CCCNC(=O)Cc2ccccc2)CC1	3.9	-2.4	-3.5	10.7	-1.1	7.5	0.7	0.6
CC1CCCCC12NC(=O)N(CC(=O)NC(=O)NCc1ccco1)C2=O (configuration not stated)	5.8	0.3	2.1	-8.1	-12.9	-5.1	-2.6	0.4
COc1ccc(CN2[C@@H](CC(=O)O)c3ccc(C(F)(F)F)cc3S2(=O)=O)cc1	/	/	-0.5	-20.6	-14.1	1.8	1.3	1.1
C/C=C(\C)C(=O)NCCN1C2=NC[C@H](Cc3ccccc3)N2C[C@@H]1Cc1ccc(OC)cc1	-3.5	-2.6	1.3	-7.2	4.9	/	0.5	-1.6
O=C(CC1C(=O)NCCN1C(=O)Nc1ccc(F)cc1)Nc1ccc(F)cc1 (configuration not stated)	2.5	2.1	-2.2	6.5	1.0	-5.4	-7.7	-1.6
CC(=O)N1CCC(N(C(=O)Nc2ccc(Cl)cc2)C(C)C)CC1	1.4	5.8	3.0	7.6	17.3	-1.7	0.8	-0.6
Cc1ccc(-c2nc(SCC(=O)c3c(N)n(C)c(=O)n(C)c3=O)n[nH]2)cc1	-3.5	-0.5	-4.3	-16.2	-20.1	-6.2	2.4	0.4
NC(=O)Nc1ccccc1C(=O)N1CCC(O)(c2ccc(Cl)cc2)CC1	2.7	-2.8	/	-19.9	-2.0	-2.8	-2.4	-0.1
c1csc(-c2nnc(COc3ccc4c(c3)OCO4)o2)c1	3.1	-10.8	2.3	0.6	-32.5	-9.9	1.5	-0.6
Cc1cc(F)ccc1S(=O)(=O)Nc1ccc(C(=O)N2CCCCCC2)cc1	-1.9	6.3	-4.0	/	/	5.3	/	1.6
CC(=O)c1c(C)nn(CCC(=O)O)c1C	0.5	6.7	-2.3	1.1	31.0	/	?	0.4
CCc1ccccc1-n1c(SCC(=O)NC)nnc1-c1cccnc1	6.7	-4.4	-5.4	-15.3	4.6	/	-0.8	0.6
Cc1cc(-c2nnc(CCC(=O)NC(Cc3ccccc3)c3ccccc3)o2)no1 (configuration not stated)	2.8	-3.0	0.7	0.4	-20.7	-2.5	-1.6	0.6
O=S(=O)(NCc1ccc(Cl)cc1)NCc1ccccc1F	1.0	2.7	-0.8	7.0	4.5	0.3	1.7	0.4
Cc1ccc2c(c1)N(CC(=O)N1CCCC1)C(=O)CO2	0.4	-1.2	2.5	2.3	-5.6	-4.7	-0.6	1.1
Cc1sc2nc(COC(=O)c3ccc(N4CCCC(C)C4)c([N+](=O)[O-])c3)[nH]c(=O)c2c1C (configuration not stated)	/	-12.9	-1.6	-6.3	3.8	-0.9	-2.3	-0.4
COc1ccc(CNC(=O)CSc2ccsc2[N+](=O)[O-])cc1	1.3	-1.2	-0.9	16.2	-3.2	-1.3	-3.7	-2.3
COc1ccc(Cl)cc1NC(=O)CN(C)C(=O)c1ccc(C)s1	3.9	-2.2	/	-6.8	-2.0	-1.7	-2.4	0.4
COc1ccc(-c2cc(C(F)F)n3ncc(C(=O)Nc4cnn(Cc5ccccc5)c4)c3n2)cc1	0.9	/	1.5	27.4	2.5	31.5	?	0.3
CN(C)CCCNC(=O)c1ccc(-c2ccccc2)cc1	1.9	0.2	0.0	41.2	2.2	-8.8	4.2	0.0
Cc1noc(C)c1COc1cccc(C(=O)NCc2cccc(Cl)c2)c1	0.3	-6.0	-0.6	9.3	24.2	9.0	0.6	-0.8
COc1ccc(C(=O)NN2CCOCC2)cc1[N+](=O)[O-]	3.2	2.6	1.6	-5.6	-6.2	-7.4	7.1	0.3
O=C(CCn1c(=O)c2ccccc2n(Cc2ccccc2)c1=O)NCc1ccc2c(c1)OCO2	-0.8	-17.7	-3.3	16.5	-12.0	3.8	-1.8	-1.3
O=C(COc1ccc(Cl)cc1)OCc1csc(Nc2ccccc2)n1	1.5	0.2	-3.4	5.1	-34.3	-6.2	-0.8	0.5
COc1ccc(/C=C/C(=O)N(C)Cc2cccs2)cc1S(=O)(=O)N1CCOCC1	2.2	-0.3	-1.4	-3.0	-25.3	4.0	4.2	0.9
Cc1ccccc1NC(=O)/C=C/c1cccs1	10.5	2.8	2.7	-24.5	-8.0	4.0	3.3	-8.4
Cc1c(Cl)cccc1NC(=O)Cc1cccs1	1.1	3.4	-1.2	-9.5	-33.3	-7.6	?	1.6
CCCCNC(=O)CSc1nc(Cc2ccccc2)nc2ccccc12	3.2	-15.5	1.7	-0.6	6.5	-0.5	-2.6	-1.2
Cc1cc(C(=O)NCC(C)(C)N2CCOCC2)c(C)o1	-0.2	-2.8	1.3	6.4	-9.6	2.0	-1.3	-0.9
COc1ccc(C2=NN(C(=O)CCC(=O)O)C(c3ccccc3OC)C2)cc1 (configuration not stated)	1.5	4.8	1.6	8.0	3.5	-2.1	3.2	1.1
C=CCn1c(N2CCN(c3ccc(OC)cc3)CC2)nc2c1c(=O)[nH]c(=O)n2C	3.8	-5.3	-1.1	-1.2	1.9	-3.7	8.5	1.9
CCc1ccc(C(=O)Nc2cccnc2Oc2ccc(Cl)cc2)cc1	3.1	-0.6	-0.2	-2.4	4.7	-3.7	-0.3	0.1
CC(C)c1nnc(NC(=O)CCC(=O)N2CCN(c3ccccn3)CC2)s1	1.9	-3.6	2.3	-15.7	-16.2	1.3	0.3	0.5
O=C(NCC1CCCO1)c1ccc(Cl)c(S(=O)(=O)N2CCOCC2)c1 (configuration not stated)	3.4	0.5	2.5	5.8	3.7	0.1	?	0.9
CC(=O)N1CC(C)Oc2ccc(S(=O)(=O)NC(CC(=O)O)c3ccccc3)cc21 (configuration not stated)	1.9	-2.2	0.3	-15.1	-9.1	-4.4	6.2	0.3
Cc1noc(C)c1NC(=O)Nc1cccc2c1O[C@H](CN(C)S(=O)(=O)c1c(C)noc1C)[C@@H](C)CN([C@H](C)CO)C2=O	6.8	-6.2	-5.5	/	/	1.4	/	0.7
CC(=O)Nc1ccc(-c2nnc(SCC(=O)n3c4c(c5ccccc53)CCCC4)n2C)cc1	4.4	-4.9	/	9.6	-2.7	/	-3.0	/
O=C(Nc1nc(-c2cccc([N+](=O)[O-])c2)cs1)c1cccc([N+](=O)[O-])c1C(=O)O	1.6	-3.0	-2.9	4.6	-0.7	/	-2.0	-2.4
COc1ccc(OC)c2sc(N3CCN(C(=O)c4ccc([N+](=O)[O-])s4)CC3)nc12	6.8	7.3	-1.2	66.7*	-6.8	/	1.9	-1.2
CC1CCN(S(=O)(=O)CCNC(=O)c2ccccc2)CC1	/	1.4	-2.0	-12.6	-3.1	-4.6	8.6	0.1
COCCCNCC(=O)Nc1ccc(OC(F)(F)F)cc1	5.6	-7.1	-4.9	0.0	3.6	-3.4	2.4	1.8
CCN1CCCc2cc(CN(CCN3CCOCC3)C(=S)Nc3cccc(Cl)c3)ccc21	1.5	0.9	-3.2	32.2	4.7	5.3	-2.9	2.2
CCC(=O)Nc1ccc(/C(C)=N\NC(=O)c2ccc(C)s2)cc1	/	-7.0	0.5	-7.6	-3.3	-2.3	1.6	0.2
CC(=O)Nc1ccc(/C=N/NC(=O)c2cccs2)cc1	/	-5.6	0.2	4.0	-1.7	0.1	1.1	-7.9
CN(C)CCCOC(=O)COc1ccc(Br)cc1	-0.6	-4.1	3.3	5.0	1.8	0.0	7.5	-1.3
CC(C)CN1C(=O)c2ccc(C(=O)Nc3nccs3)cc2C1=O	7.0	1.2	0.9	-13.2	-2.7	-8.1	2.3	-0.5
CCOc1cccc2cc(C(=O)N3CC(C)OC(C)C3)c(=O)oc12 (configuration not stated)	-4.5	-4.0	4.0	-7.2	1.4	-4.8	2.3	-0.1
COc1ccc(-c2nnc(SCC(=O)N3CCC(Cc4ccccc4)CC3)o2)cc1OC	5.2	3.9	3.9	42.3	-13.7	-7.3	-0.3	0.5
COc1ccc(N2CCN(C(=O)C(Cc3ccccc3)n3cccc3)CC2)cc1 (configuration not stated)	2.4	15.7	-1.1	-8.6	-1.5	9.1	3.3	0.3
(list continues)
SMILES	UCH37 inh	Beta2AR agonist	LANA-H2B inh	T cruzi inh	Calb FLC	Beta apoptosis	RanGTP-Impb inh	A1 inh
Cc1ccc(C)c(NC(=S)N2CCN(Cc3ccccc3)CC2)c1	0.3	-0.2	1.6	-18.8	-24.0	-3.9	0.6	0.4
COc1ccc(-c2ncc3ccccn23)cc1OC	-19.4	7.1	6.2	8.6	0.5	-1.9	2.4	-0.3
O=S(=O)(c1cccs1)N1CCC(CO)(Cc2cccc(F)c2)CC1	2.2	2.3	1.2	-20.1	9.5	1.4	-2.4	0.1
COc1cc(C=O)ccc1OCCOCCOc1c(C)cc(Cl)cc1Cl	0.3	3.2	-3.0	/	-34.7	-4.4	-1.9	-0.3
CN(Cc1ccccc1)C(=O)c1cccc(N2C(=O)NC3CC2(C)Oc2ccccc23)c1 (configuration not stated)	0.8	-0.4	1.4	-8.5	-4.1	/	3.9	-0.4
CCc1ccc(CNCc2cccs2)cc1	3.4	-7.6	-0.5	-11.2	-8.0	7.6	2.1	-0.1

2 successive compounds out of the list so far, quoted:
SMILES	UCH37 inh	Beta2AR agonist	LANA-H2B inh	T cruzi inh	Calb FLC	Beta apoptosis	RanGTP-Impb inh	A1 inh
CN(Cc1ccccc1)C(=O)c1cccc(N2C(=O)NC3CC2(C)Oc2ccccc23)c1 (configuration not stated)	0.8	-0.4	1.4	-8.5	-4.1	/	3.9	-0.4
CCc1ccc(CNCc2cccs2)cc1	3.4	-7.6	-0.5	-11.2	-8.0	7.6	2.1	-0.1
